VDR inh: vitamin D3 receptor (human) inhibition; VDR-SRC2-3 peptide fluorescence polarization, 2 h; actives 0.93% (n = 400,000); Potency, µM, without a hit: max response, negative = inhibition, hits mostly inhibitors; P11473; active means well fitted inhibition curve with a large enough effect; inconclusive means small, poorly fitted or top-dose-only effect, or another doubt; inactive means no such curve, though single readings can be large or run the other way; further: series mostly up to about 120 µM
Target sequence (P11473 whole entry, looked up): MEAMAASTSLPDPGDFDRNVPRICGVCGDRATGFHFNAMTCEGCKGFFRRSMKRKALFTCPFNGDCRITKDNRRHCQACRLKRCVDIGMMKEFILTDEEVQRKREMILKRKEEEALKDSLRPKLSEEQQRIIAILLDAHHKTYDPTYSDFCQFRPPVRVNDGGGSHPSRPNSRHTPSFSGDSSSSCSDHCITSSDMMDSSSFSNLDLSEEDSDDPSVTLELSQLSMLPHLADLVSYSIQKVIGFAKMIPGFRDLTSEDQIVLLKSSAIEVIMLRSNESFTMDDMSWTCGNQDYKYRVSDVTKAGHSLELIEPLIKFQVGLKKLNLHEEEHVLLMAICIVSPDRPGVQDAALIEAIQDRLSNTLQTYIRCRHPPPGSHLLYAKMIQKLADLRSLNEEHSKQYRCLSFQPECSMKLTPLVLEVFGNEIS
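Measured by FP: displacement of SRC2-3 coactivator peptide from VDR by library compounds, following a two-hour ambient incubation.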
The depositor's hits bear a star; u = inconclusive; & = joins results of further samples. On the % scale 0 is the no-effect control and ±100 the full control effect; potency means the concentration at half of the fitted maximal effect. These rows are one share of the data; the hit share may differ from the screen's.

Sample of the layout (4 entries):
VDR inh,SMILES
3%,O=C(Nc1ccc(S(=O)(=O)N2CCCCC2c2cccnc2)cc1)c1ccccc1F (stereo unspecified)
-22%,CC1CCCC(C)N1CCCNC(=O)Cn1cc2c(n1)CCCC2 (stereo unspecified)
-19%,Nc1cc(=O)[nH]c2ncnn12
-12%,O=Cc1ccc2noc(-c3ccc(Cl)cc3)c2c1

Results (from the top)
VDR inh,SMILES
3%,O=C(Nc1ccc(S(=O)(=O)N2CCCCC2c2cccnc2)cc1)c1ccccc1F (stereo unspecified)
-22%,CC1CCCC(C)N1CCCNC(=O)Cn1cc2c(n1)CCCC2 (stereo unspecified)
-19%,Nc1cc(=O)[nH]c2ncnn12
-12%,O=Cc1ccc2noc(-c3ccc(Cl)cc3)c2c1
0%,Cc1ccc(/C=N/NC(=O)c2ccco2)cc1
2%,O=C(CNC(=O)c1ccc(Br)o1)NNC(=O)c1ccc(Br)cc1
-22%,CCOC(=O)N1CCC(C(=O)Nc2ccc(OCC)cc2)CC1
6%,c1ccc(-c2ccc3[nH]ccc3c2)cc1
-12%,COc1cccc(CNC(=O)CCNS(=O)(=O)c2ccc(C)cc2)c1
0%,CCOc1cc(CNn2cnnc2)cc(Br)c1OCC(=O)NC(C)(C)C
-24%,Cc1ccc(-c2csc(NC(=O)c3ccc(-c4ccccc4)cc3)n2)o1
-7%,CC(NC(=O)COc1ccccc1)C(=O)NCc1ccccc1Cl (stereo unspecified)
-4%,Cc1ccc2c(CC(=O)N3CCN(c4ccccc4)CC3)coc2c1
-19%,CCOC(=O)C1=C(C)NC(=S)NC1/C=C/c1ccccc1 (stereo unspecified)
7%,COc1ccccc1-c1cnn2c(N3CCOCC3)cc(C)nc12
-1%,CC(C)N1C(=O)CCC1C(=O)NCc1ccccc1Cl (stereo unspecified)
-14%,C/C(N)=C(/C#N)C(=O)COC(=O)c1cc2c(s1)CCCC2
16%,O=[N+]([O-])c1ccc(/C=C/C2=NN(c3ccccc3)C(c3ccco3)C2)cc1 (stereo unspecified)
-21%,CC1CCC(NC(=O)C2CCC(CNS(=O)(=O)c3cccc4cccnc34)CC2)CC1 (stereo unspecified)
6%,COc1ccc(NC(=O)c2ccccc2S(=O)c2ccccc2C#N)cc1 (stereo unspecified)
7%,CC1(c2nnc(-c3cccc(Cl)c3)o2)CC(c2ccc(OC(F)(F)F)cc2)=NO1 (stereo unspecified)
3%,O=C(Nc1cccc(NC(=O)N2CCN(c3ccccc3)CC2)c1)N1CCN(c2ccccc2)CC1
u,CCc1ccc(C(=O)CSc2ncn[nH]2)cc1
-20%,N#Cc1ccc(CN2CCN(C(=O)CN3C(=O)NC4(CCCC4)C3=O)CC2)cc1
-8%,Cc1cc(/C=C(\C#N)C(=O)Nc2ccccc2)c(C)n1-c1ccc(C(=O)O)cc1
-20%,Cc1cc(C)c(S(=O)(=O)Nc2ccccc2C(=O)OCC(=O)NCc2ccccc2)c(C)c1
-9%,CCC1S/C(=N/N=C/c2ccco2)N(Cc2ccc(F)cc2)C1=O (stereo unspecified)
9%,CCOCCc1nnc(NC(=O)Cc2c(F)cccc2Cl)s1
-18%,COc1ccc(CN(C)CC(=O)Nc2ccccc2C(=O)NC2CC2)cc1F
9%,O=C(Nc1cc(Cl)cc(Cl)c1)c1cc(S(=O)(=O)NC2CCCC2)ccc1F

An excerpt from above in order of molecular weight, ascending:
VDR inh,SMILES
7%,CC1(c2nnc(-c3cccc(Cl)c3)o2)CC(c2ccc(OC(F)(F)F)cc2)=NO1 (stereo unspecified)
0%,CCOc1cc(CNn2cnnc2)cc(Br)c1OCC(=O)NC(C)(C)C
3%,O=C(Nc1ccc(S(=O)(=O)N2CCCCC2c2cccnc2)cc1)c1ccccc1F (stereo unspecified)

(next part)
VDR inh,SMILES
3%,CCCCCCOc1ccc(/C=C/C(=O)N2CCOCC2)cc1OC
10%,CCc1nccn1S(=O)(=O)c1cc(OC)ccc1OC
-10%,Cc1ccc(OCC(=O)Nc2cccc3c2CCCC3)cc1C
23%,Cc1ccc(Cn2nnc3c(=O)n(CC(=O)NCc4ccccc4)cnc32)cc1
-2%,Cc1ccc(-c2nc(-c3cccnc3)no2)cc1
-14%,NC(=O)c1ccsc1NC(=O)CSc1nnc(NC2CC2)s1
5%,Cc1ccc(OCC(=O)OCc2cc(=O)n3nc(C4CC4)sc3n2)cc1C
-17%,O=C1c2ccccc2COc2ccc(O)cc21
-1%,Cc1cc2c(c(N3CCOCC3)n1)C(=O)OC2
-10%,COCC(=O)N1c2nc(C(C)C)nn2C2(CCCCC2)[C@@H]2CCCC[C@@H]21
-3%,O=C(NC(=O)N1CCCC1)c1csnn1
13%,O=C(c1cn(-c2ccccc2)nc1-c1cccs1)N1CCN(c2ccccn2)CC1
2%,CCCNC(=O)COC(=O)c1ccccc1C(=O)c1ccc(Cl)c([N+](=O)[O-])c1
3%,O=C(CN(c1ccccc1F)S(=O)(=O)c1ccccc1)N1CCCCCC1
-3%,CCOC(=O)C(=CNc1cc(C)ccc1C)C(=O)OCC
-16%,COc1ccc(-n2nc(C(=O)N3CCCCC3)c3c4ccccc4n(C)c3c2=O)cc1Cl
-1%,COc1ccc(C(=O)NCC(C)CN(C)C)cc1 (stereo unspecified)
1%,CCn1c(C)nc2cc(S(=O)(=O)N3CCCC3)ccc21
10%,CCOC(=O)c1cc(NC(=O)c2cccnc2)cc(C(=O)OCC)c1
u,O=C(C1=C(O)C(=O)N(c2nc3ccc(Cl)cc3s2)C1c1ccco1)c1ccco1 (stereo unspecified)
-13%,O=S(=O)(c1cccc(S(=O)(=O)N2CCOCC2)c1)N1CCCCCC1
-4%,O=C(NCCc1ccccc1)c1cccc(S(=O)(=O)NCc2ccccc2)c1
-10%,CN(C(=O)c1cc(-c2ccccc2)on1)C1CCCCC1
-12%,O=C(NCc1ccc(Cl)s1)C1CCC(=O)N(CCc2cccc(F)c2)C1 (stereo unspecified)
8%,O=C(NCc1ccccc1Cl)c1ccc(Cn2c(SCc3ccccc3)nc3cccnc32)cc1
-10%,COc1ccc(Cl)cc1-c1nc(SCC(=O)N(C)C)n[nH]1
-5%,O=C1c2cccc3cccc(c23)C(=O)N1CC1CCN(CC(O)COc2ccc3ccccc3c2)CC1 (stereo unspecified)
-1%,CN(C)CCCn1c2c(c(SCC(=O)Nc3ccc4c(c3)OCO4)nc1=O)CCCC2
-6%,CCN(C(=O)COC(=O)c1c(C)c(-c2ccccc2)nc2ccccc12)C1CCS(=O)(=O)C1 (stereo unspecified)
u,Cc1c(NC(=S)NC(NC(=O)C(C)C)C(Cl)(Cl)Cl)c(=O)n(-c2ccccc2)n1C (stereo unspecified)
5%,COc1cccc(-n2c(O)c(C=NCc3ccccn3)c3ccccc3c2=O)c1
-18%&3%,CC(=O)c1cccc(NC(=O)CN2C=NS(=O)(=O)c3ccc(C)cc32)c1
2%,Oc1ccc(N=Nc2ccc3c(c2)OCCO3)c2cccnc12
-13%,CCCCOc1ccc(C(=O)NCC(=O)NCC2CCCO2)cc1 (stereo unspecified)
4%,COc1cccc(S(=O)(=O)N2CCOCC2)c1
2%,NS(=O)(=O)c1ccc(C(=O)Nc2ccc(-c3nc4cccnc4s3)cc2)cc1
-13%,Cc1sc2ncnc(SCC(=O)NNC(=O)COc3cccc4ccccc34)c2c1C
7%,Cc1ccc(C(=O)c2sc(Nc3ccc(F)cc3)nc2N)c(C)c1
3%,CC(C)C(=O)Nc1nnc(SCC(=O)NCc2cccs2)s1
-10%,O=C(O)CCSc1nnc(SCC(=O)NC2CCS(=O)(=O)C2)s1 (stereo unspecified)
-17%,C=CCOc1ccc(CN(C)CC(O)COc2ccc(CCC(C)=O)cc2)cc1 (stereo unspecified)
-5%,Cn1cc(CC(=O)N2CCN(c3ccccc3F)CC2)c2ccccc21
19%,Cc1c(C(=O)NCc2ccco2)oc2ccccc12
-1%,CC(=O)NCCNc1ccnc(-c2ccccc2C)n1
-18%,CN(C)c1ccc(C2CC(=O)OC3=C2C(=O)CC(C)(C)C3)cc1 (stereo unspecified)
-20%,CCc1ccc(OCCCCN(C)Cc2ccccc2)cc1
-8%,CCOc1ccccc1N1CCN(C(=O)c2cn(CC3CCCCC3)nn2)CC1
-8%,O=C(c1ccc(F)cc1)C1CCN(C(=O)NCc2ccccc2)CC1
-8%,O=C(CSc1ccc(Cl)cc1)N1CCN(c2c(Cl)cccc2[N+](=O)[O-])CC1
-16%,O=[N+]([O-])c1cccc(S(=O)(=O)N2CCCCCC2)c1
-2%,COc1ccc(C(=O)N/C(=C\c2ccccc2)C(=O)Nc2ccc(C(=O)O)cc2)cc1
-7%,CCn1cc(CNC(=O)C2CCC(=O)N(Cc3ccccc3F)C2)cn1 (stereo unspecified)
-10%,Cc1ccc(-c2csc3ncn(CC#N)c(=O)c23)cc1C
2%,O=C(O)/C=C/c1ccc([N+](=O)[O-])o1
15%,Oc1c(C(c2ccc(F)cc2)N2CCOCC2)sc2nc(-c3ccco3)nn12 (stereo unspecified)
1%,COc1ccc(CNS(=O)(=O)CCNC(=O)c2ccc3c(c2)OCO3)cc1
-1%,COC(=O)CC/C(O)=C1\C(=O)CC(C)(C)CC1=NCc1nc2ccccc2[nH]1
10%,COCCCC1CCN(C(=O)CCc2nnc(CCCCc3ccccc3)o2)CC1
0%,COc1ccc(NC(=O)c2cnc(SCC(=O)NCCc3ccccc3)n(C)c2=O)cc1
0%,COc1ccccc1N(CC(=O)NCc1ccc(F)cc1)C(=O)CCC(=O)Nc1nccs1

Arranged by value in VDR inh (rising): three of the compounds above
VDR inh,SMILES
-14%,NC(=O)c1ccsc1NC(=O)CSc1nnc(NC2CC2)s1
-13%,O=S(=O)(c1cccc(S(=O)(=O)N2CCOCC2)c1)N1CCCCCC1
1%,COc1ccc(CNS(=O)(=O)CCNC(=O)c2ccc3c(c2)OCO3)cc1

(continued)
VDR inh,SMILES
2%,CN(CC(=O)NC1CCN(Cc2ccccc2)CC1)S(=O)(=O)c1ccc(Br)s1
8%,Cc1ccc(NC(=O)C2CCCN(S(=O)(=O)c3c(C)noc3C)C2)nc1 (stereo unspecified)
16%,Cc1cccc2cc(/C=N/NC(=O)[C@H]3C[C@@H]3c3ccccc3)c(Cl)nc12
-17%&13%,COCCCNC(=O)c1ccc2nc(Cc3ccc(OC)cc3)oc2c1
u,COc1ccc(-n2c(=O)c(-c3ccccc3)nc3cnc(N4CCOCC4)nc32)cc1
0%,Cc1ccc(S(=O)(=O)NC(=O)COc2ccccc2C(N)=O)cc1
-4%,O=C(COC(=O)C1CSC2(c3ccc(F)cc3)CCC(=O)N12)NC(=O)NC1CCCC1 (stereo unspecified)
-13%,Cc1cccc(C(=O)NNC(=O)/C=C/C(=O)O)c1
-5%,CCCC(c1nnnn1C1CCCC1)N1CCN(c2ccccc2F)CC1 (stereo unspecified)
5%,COc1ccc(C2(C(=O)NCCCN(C)C)CCOCC2)cc1
0%,C=CCOC(=O)NC(CC(=Nc1ccc(OC)cc1)C(=O)OC)c1ccccc1 (stereo unspecified)
6%,CCOC(=O)c1c(NC(=O)COc2ccccc2OCC)sc2c1CC(C)(C)NC2(C)C
-1%,CC(=O)Nc1ccc(C(=O)N/N=C/c2ccncc2)cc1
-12%,O=C(Cn1cnc2ccccc2c1=O)N1CCN(S(=O)(=O)c2ccc(F)cc2)CC1
5%,Cc1ccc2c(c1)C1CN(C)CCC1N2C(=O)c1cccc(S(=O)(=O)N2CC(C)CC(C)C2)c1 (stereo unspecified)
-25%,N#C/C(=C\c1ccc(-c2cccc(C(F)(F)F)c2)o1)C(=O)Nn1cnnc1
-7%,Cc1cccc(C)c1N(CC(=O)Nc1cccc(N(C)S(C)(=O)=O)c1)S(C)(=O)=O
-22%,COc1ccc(NS(=O)(=O)c2cc(NC(=O)/C=C/c3cccs3)ccc2N2CCOCC2)cc1
7%,O=C(O)c1ccc(-n2c(-c3ccccc3)n[nH]c2=S)cc1
5%,CCc1ccccc1NC(=S)N(Cc1ccco1)C(C)c1cccs1 (stereo unspecified)
-15%,CCS(=O)(=O)NCCc1csc(-c2ccc(OC)c(OC)c2)n1
-18%,Cc1cc(C)cc(OCC(=O)Nc2ccc(S(=O)(=O)Nc3ccccn3)cc2)c1
-22%,COc1cc(S(=O)(=O)N2CCN(c3ccccc3)CC2)ccc1Cl
-1%,CCCOc1ccc2ccccc2c1/C=N/n1cnnc1
-13%,COc1cccc(NC(=O)CC2SC(=Nc3ccccc3)NC2=O)c1 (stereo unspecified)
9%,Cc1ccc(NC(=O)/C=C\C(=O)N(c2ccc(C(C)C)cc2)C(C(=O)NCc2ccco2)c2ccc(Cl)cc2)cc1 (stereo unspecified)
3%,O=c1ccc2cc3ccoc3cc2o1
0%,Cc1ccc(C(=O)N(Cc2ccco2)Cc2sccc2C)cc1
2%,CC(C)C(=O)NC(Nc1cccc([N+](=O)[O-])c1)C(Cl)(Cl)Cl (stereo unspecified)
-14%,CCSc1cc(C2C(C(=O)OC)=C(C)NC3=C2C(=O)CCC3)c(C)o1 (stereo unspecified)
4%,Cc1cc(/C=N/NC(=O)C(=O)N2CCCC2)c(C)n1-c1cccc(Br)c1
0%,COc1ccc(C2=Nn3c(nnc3-c3ccccn3)SC2)cc1
-14%,Cc1ccccc1SC1CCN(Cc2nc(C3CC3)no2)CC1
-2%,O=C(OCC1CCNCC1)c1ccc(F)cc1
-18%,O=P(COCCCCCOCP(=O)(c1ccccc1)c1ccccc1)(c1ccccc1)c1ccccc1

Bioassay records from PubChem.
